PABP FP inh: PABP poly(A) RNA binding inhibitors, primary screen, biochemical, fluorescence polarization, uHTS. Polyadenylate-binding protein 1 (Homo sapiens), P11940. inhibition, % at 35 µM. 290,000 tested, 1% active;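 active = 50% or more with normal probe brightness, or confirmed in later tests; about a fifth of its hits are not listed in these tables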;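 note: calls also rest on retests at 20 µM and on dose response follow-up; controls were probe without protein and protein plus probe with vehicle; some compounds called inactive have numbers as strong as hits; many hits fall short of the cut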
Target sequence (P11940 whole entry, looked up): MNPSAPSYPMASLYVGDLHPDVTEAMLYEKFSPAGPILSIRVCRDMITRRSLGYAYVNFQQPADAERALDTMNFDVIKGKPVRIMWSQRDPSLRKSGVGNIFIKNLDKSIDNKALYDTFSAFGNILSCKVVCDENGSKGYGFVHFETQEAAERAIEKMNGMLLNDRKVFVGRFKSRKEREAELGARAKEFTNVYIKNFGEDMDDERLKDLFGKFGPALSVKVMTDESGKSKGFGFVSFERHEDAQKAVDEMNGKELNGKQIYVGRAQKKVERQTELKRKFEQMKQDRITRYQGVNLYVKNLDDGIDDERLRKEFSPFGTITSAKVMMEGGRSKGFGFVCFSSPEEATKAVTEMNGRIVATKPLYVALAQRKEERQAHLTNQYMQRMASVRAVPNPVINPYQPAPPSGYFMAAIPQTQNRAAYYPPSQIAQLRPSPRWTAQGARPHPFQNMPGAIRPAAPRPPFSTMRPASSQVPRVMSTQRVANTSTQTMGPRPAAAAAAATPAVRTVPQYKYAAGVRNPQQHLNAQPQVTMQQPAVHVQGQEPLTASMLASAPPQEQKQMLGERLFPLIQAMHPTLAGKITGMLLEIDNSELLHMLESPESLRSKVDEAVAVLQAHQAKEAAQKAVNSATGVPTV
UUG fidelity: modulators of yeast start codon fidelity, primary screen, whole organism, S. cerevisiae, single point, plate reader; S. cerevisiae UUG-firefly luciferase reporter, luminescence/redox ratio; activity score, % at 18.7 µM; 350,000 tested, 0.13% active; AID 602363, 2012;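 active = replicate mean at a twofold rise or more, about +100% in these data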;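 note: firefly luciferase made from a UUG start codon reports start codon fidelity; reporter light over untreated wells divided by growth signal over untreated wells; some hits fall short of that in this replicate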
Env fusion inh: inhibitors of HIV-1 Env-driven cell-cell fusion, primary screen, HeLa-JRFL effector, CEM21 target cells, luciferase; inhibition, % at 12.3 µM; 360,000 tested, 1.1% active;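 active = mean replicate inhibition score of at least 50 and every replicate individually at or above 50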;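 note: 0% = plate neutral controls and 100% = maraviroc near 300 nM; one replicate is shown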
Rce1 inhib: yeast Rce1p protease inhibitors, primary screen, biochemical, fluorescence, cell-free homogeneous. CAAX prenyl protease 2 (Saccharomyces cerevisiae (strain ATCC 204508 / S288c)), Q03530. yeast membranes, quenched prenylated peptide cleavage fluorescence. calls only. 290,000 tested, 0.27% active. AID 2563, 2010;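 active = fall in fluorescence gain of 50% or more versus controls, with final raw signal at or below 3038400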;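 note: plate controls were neutral control wells for no effect and wells lacking membranes for full effect; tested at 10 µM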
CSC inhib: cancer stem cell viability inhibitors, primary screen, luminescence | cancer stem cell-like cells viability | inhibition, % at 7.5 µM | 300,000 tested, 1.1% active | AID 2717, 2010;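 active = mean at 75% or more and at least half the replicates too; tested in HMLE shEcad cells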;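 note: 0% = median of negative and 100% = median of positive control wells; the first replicate is given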
eIF4H FP inh: human eIF4H binding inhibitors, primary screen, translation initiation inhibitor project, biochemical, uHTS, fluorescence polarization; inhibition, % at 35 µM; 290,000 tested, 0.94% active; eIF4H fluorescence polarization binding assay; Eukaryotic translation initiation factor 4H (Homo sapiens), Q15056; AID 2012, 2009;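 active = 50% or more with normal probe brightness, or confirmed in later tests; about a fifth of its hits are not listed in these tables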;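 note: calls also rest on retests at 20 µM and on dose response follow-up; 0% = protein and probe with vehicle and 100% = probe without protein; strong numbers were not always called active; many hits fall short of the cut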
MT1-MMP act inh: blockers of MT1-MMP proenzyme processing, primary screen, HT1080 RFP-PRO-GFP cells, GFP/RFP fluorescence | Matrix metalloproteinase-14 (Homo sapiens), P50281 | 360,000 tested, 0.061% active | GFP/RFP ratio change, % at 20 µM | GFP/RFP ratio fluorescence, overnight; percent of plate control window, DMSO zero | AID 651647, 2012;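 active = GFP/RFP ratio change of at least 30% with cell ATP level not reduced by more than half and red fluorescence within 50% of control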; note: strong numbers were not always called active
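Assay system: HT1080 RFP-PRO-GFP cells. Benchmarks: DMSO vehicle wells and RFP-L50D-GFP reporter cell wells. Times: overnight cell settling, then overnight compound exposure, 37 °C, 5% CO2. Compound: 20 µM single dose, 1% DMSO. Read-out basis: GFP/RFP fluorescence ratio.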
eIF4H FP inh retest: further read-out of eIF4H FP inh, marked with its call; inhibition, %; compound at 20 µM; confirmation average;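 mean of two retest wells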
PABP FP inh retest: second read-out of PABP FP inh, no call of its own (marks repeat the call); inhibition, %; compound at 20 µM; confirmation repeats;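 mean of two retest wells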
MT1-MMP act inh RFP: also measured in MT1-MMP act inh; calls as there; RFP signal change, %; measured here: RFP expression control read;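 0 = vehicle wells; hits needed this value within 50% of zero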
* hit, by the source's call; i = inactive; nt = no result given; & = joins results of further samples. The list is partial. The share of hits here may be higher or lower than overall.

SMILES | PABP FP inh | UUG fidelity | Env fusion inh | Rce1 inhib | CSC inhib | eIF4H FP inh | MT1-MMP act inh | MT1-MMP act inh RFP | others
Cn1c(SCC(=O)N2CCOCC2)nnc1-c1ccc(NC(=O)c2ccccc2F)cc1 | -10 | -5 | nt | i | -16 | -3 | 0 | 1
Cc1ccc(SCCNC(=O)/C=C/c2ccccc2Cl)cc1 | -6 | -11 | nt | i | 4 | 2 | 4 | 2
CCn1cc(S(=O)(=O)Nc2ccc(Cl)cc2F)cn1 | -8 | -15 | -30 | i | -3 | -8 | -1 | 5
COc1cccc(/C=N/NC(=S)Nc2cccc(S(=O)(=O)N(C)C)c2)c1 | 0 | -24 | -247 | i | -6 | -7 | 6 | -7
COC(C(=O)NCc1ccc(C)cc1)c1ccccc1 (centres undefined) | -4 | nt | -17 | i | -8 | -13 | -2 | 0
CC(=O)NC(=S)Nc1ccc(N2CCOCC2)c(S(=O)(=O)Nc2cc(Cl)ccc2Cl)c1 | 2 | nt | 0 | i | -3 | 81 | 2 | 5 | eIF4H FP inh retest=44;PABP FP inh retest=37
Cc1cccc(N2CCN(C(=O)c3ccc4nc[nH]c4c3)CC2)c1C | -4 | -28 | 8 | i | -15 | 7 | 6 | -1
COC(=O)c1cc(C)sc1NC(=O)CC1Nc2ccccc2NC1=O (centres undefined) | -4 | -7 | 15 | nt | nt | 8 | -13 | -1
COC(=O)[C@@]12CCCCN1[C@H](c1ccc(-c3ccc(Cl)c(Cl)c3)cc1)[C@H]1C(=O)N(C)C(=O)[C@H]12 | nt | -13 | 17 | nt | nt | nt | 2 | -9
CC(SCc1ccccc1)C(=O)Nc1ccccc1Br (centres undefined) | 13 | -15 | 6 | i | -6 | 3 | -5 | -5
CCOc1c2ccc(C(=O)NCc3ccc4c(c3)OCO4)cc2nn1CC | 3 | -21 | 0 | i | -8 | -2 | -2 | 1
CC(O)(C#CCN1CCCCC1)c1ccccc1 (centres undefined) | -4 | -22 | nt | i | -13 | -3 | 0 | 3
CCN(CC(=O)NC(C)(C)C)C(=O)c1ccc(Br)cc1 | 7 | -18 | -4 | i | 11 | -4 | -2 | -1
Cc1nc2sc3c(c2c(=O)n1NC(=O)CCl)CCCC3 | -2 | -14 | -58 | nt | 2 | 7 | -1 | -1
Cc1c(NC(=O)c2ccc(NS(=O)(=O)c3ccccc3)cc2)c(=O)n(-c2ccccc2)n1C | -13 | -16 | -7 | i | -8 | -13 | 0 | 0
COc1cc(OC)cc(-c2c(C#Cc3ccsc3)c3cc(-c4ccc5[nH]ccc5c4)ccc3n2C)c1 | nt | -9 | -21 | nt | -1 | nt | 0 | 1
CNC[C@H]1Oc2c(NS(=O)(=O)c3ccc(OC)cc3)cccc2C(=O)N([C@H](C)CO)C[C@H]1C | nt | -17&-16 | -2 | nt | -19 | nt | -5 | 3
CCCNC(=S)N1CCN(c2nc(-c3cccc(OC)c3)cs2)CC1 | 3 | -18 | 19 | i | 2 | 0 | -1 | -5
Cc1cccc(Nc2ccc3nonc3c2[N+](=O)[O-])c1C | 0 | 18 | -9 | i | -13 | 0 | 2 | 6
CCc1ccc(C(=O)NCC2COc3ccccc3O2)o1 (centres undefined) | -4 | -19 | -5 | nt | 7 | -6 | -1 | 1
OCCC1CN(Cc2cnc(-c3ccc(Cl)cc3)nc2)CCN1C1CCCCC1 (centres undefined) | 3 | nt | 15 | i | 13 | 6 | 1 | -16
CCOc1cccc(-c2c(C(=O)N/N=C/c3ccoc3)nnn2-c2nonc2N)c1 | 1 | -27 | -1 | i | -11 | -2 | -4 | 3
Cc1cc(C(=O)NCC(=O)Nc2c(C)cccc2C)c(C)o1 | -10 | -10 | 21 | i | 1 | -12 | 2 | 6
COCCN1C(=O)CCC1(C)C(=O)Nc1ccc2c(c1)OCCO2 (centres undefined) | nt | -12 | -20 | nt | nt | nt | 2 | 4
COc1cccc(CN(C)C(=O)c2csc3c2CCCC3)c1OC | -9 | 3 | 1 | i | 2 | -9 | 1 | 5

Continuation.
SMILES | PABP FP inh | UUG fidelity | Env fusion inh | Rce1 inhib | CSC inhib | eIF4H FP inh | MT1-MMP act inh | MT1-MMP act inh RFP | others
CCOC(=O)c1sc(N)nc1C(C)C | 8 | -17 | nt | i | -3 | -4 | 2 | 2
Cc1ccc(S(=O)(=O)N(C)CC(=O)NCCc2c[nH]c3ccccc23)cc1 | -17 | -3 | 10 | i | 6 | -12 | 1 | -6
CC(=O)c1ccc(OCCCC(=O)NC2CCCc3ccccc32)cc1 (centres undefined) | 4 | 3 | nt | i | 6 | -4 | 10 | 3
CCOC(=O)Nc1ccccc1N1C(=O)c2ccccc2C1=O | -3 | -16 | -88 | i | -7 | 2 | 2 | 7
COc1ccc(CCNC(=O)C2CCN(S(=O)(=O)c3ccc(F)cc3)CC2)cc1 | 0 | -18 | 13 | i | -16 | -4 | -1 | 0
Cn1cc(Br)c(C(=O)NN2C(=O)C3C(C2=O)C2C=CC3C23CC3)n1 (centres undefined) | -2 | -14 | -3 | i | -5 | -6 | 0 | 3
Cc1ccc(S(=O)(=O)N2C[C@]3(O)C[C@@H]4C(=O)N(c5ccccc5)C(=O)[C@@H]4C[C@]3(OC(=O)NCc3ccccc3)C2)cc1 | nt | -17 | 2 | nt | nt | nt | 4 | 4
C[C@@H]1CC[C@H](Cc2ccc(-n3cccc3)cc2)N1C(=O)OC(C)(C)C | nt | -4 | 31 | nt | nt | nt | -1 | -9
O=C(NCCCN1CCOCC1)c1cnccn1 | nt | nt | 0 | i | -22 | nt | 1 | 5
Cc1cccc(-c2cc3nc(-c4ccccc4)cc(=O)n3[nH]2)c1 | -5 | -27 | -18 | i | 59 | -13 | -2 | -10
CN(C)c1cc[n+](CC(=O)N2c3ccccc3Sc3ccccc32)cc1 | 0 | nt | -7 | i | -4 | 7 | -7 | -26
Cc1csc2c(=O)sc(NC(=O)c3cccs3)nc12 | -8 | 0 | 8 | i | -7 | -2 | -1 | -8
CCOCc1c(C(=O)NCC(c2ccco2)N2CCCC2)oc2ccccc12 (centres undefined) | nt | -14 | -6 | nt | -29 | nt | -21 | -6
COc1ccc2[nH]c(=O)c(C(c3nnnn3C3CCCC3)N3CCN(Cc4ccc5c(c4)OCO5)CC3)cc2c1 (centres undefined) | -5 | -8 | -117 | i | -12 | -1 | -3 | -4
CCc1ccc(Nc2n[n+](-c3ccccc3)c(-c3ccc(C(=O)O)cc3)s2)cc1 | 22 | -19 | -11 | i | 7 | 37 | -3 | 4
Nc1c(Cl)ncnc1N1CCN(c2ncnc(Cl)c2N)CC1 | 6 | nt | -8 | nt | -6 | -7 | 0 | -5
Cc1ccc(C)c(-c2nnc(NC(=O)c3ccco3)o2)c1 | nt | -27 | -23 | i | -2 | nt | 13 | 1
CCOC(=O)NC1(C(F)(F)F)C(=O)N(Cc2ccccc2)C2=C1C(=O)CC(C)(C)C2 (centres undefined) | -6 | -2 | -10 | i | -13 | 5 | -2 | 2
COC(=O)c1ccc(OCCN2C3=NCCN3c3ccccc32)cc1 | -1 | -12 | -9 | i | 9 | 0 | 1 | 10
COCn1c(-c2cccc(Br)c2)nc2ccccc21 | 13 | -21 | -1 | i | nt | 11 | -3 | -1
Cc1cc(CNC(=O)c2cccc(OC3CCN(S(=O)(=O)N(C)C)CC3)c2)on1 | 11 | -2 | -31 | i | -4 | -5 | -4 | -19
O=C(NCC(c1ccco1)N1CCN(c2ccccc2)CC1)c1ccc2c(c1)OCO2 (centres undefined) | -3 | -19 | -12 | i | -2 | -9 | 0 | -4
Cc1cc(CC(C)C)n(-c2nc3ccccc3c(=O)n2OCC(N)=O)n1 | -3 | -25 | nt | i | 3 | -10 | 6 | 5
O=C(N/N=C\c1ccc(-c2ccccc2[N+](=O)[O-])o1)C1COc2cc3ccccc3cc2O1 (centres undefined) | 12 | -10 | nt | i | 3 | 9 | -1 | 11
Cc1ccc(C(=O)OCC(=O)NC(=O)c2cccn2C)cc1[N+](=O)[O-] | 11 | -22 | -8 | i | -7 | 2 | -3 | 1

Reprinted from the listing for reference:
SMILES | PABP FP inh | UUG fidelity | Env fusion inh | Rce1 inhib | CSC inhib | eIF4H FP inh | MT1-MMP act inh | MT1-MMP act inh RFP | others
Cc1ccc(C)c(-c2nnc(NC(=O)c3ccco3)o2)c1 | nt | -27 | -23 | i | -2 | nt | 13 | 1
CCOC(=O)NC1(C(F)(F)F)C(=O)N(Cc2ccccc2)C2=C1C(=O)CC(C)(C)C2 (centres undefined) | -6 | -2 | -10 | i | -13 | 5 | -2 | 2
COC(=O)c1ccc(OCCN2C3=NCCN3c3ccccc32)cc1 | -1 | -12 | -9 | i | 9 | 0 | 1 | 10
COCn1c(-c2cccc(Br)c2)nc2ccccc21 | 13 | -21 | -1 | i | nt | 11 | -3 | -1

Later entries
SMILES | PABP FP inh | UUG fidelity | Env fusion inh | Rce1 inhib | CSC inhib | eIF4H FP inh | MT1-MMP act inh | MT1-MMP act inh RFP | others
Cc1c(Br)c([N+](=O)[O-])nn1CC(=O)NCc1ccccn1 | -6 | -13 | -17 | i | -9 | 8 | 1 | 5
CCOC(=O)CSc1ncnc2c1cnn2-c1ccc(C)cc1C | 8 | nt | 10 | i | -13 | 3 | 0 | 6
Cc1nc2ccc(N)cc2c(=O)n1Cc1ccc(Cl)cc1 | 0 | -7 | -35 | i | 25 | -10 | -1 | -8
COc1ccc(OCCCC(=O)OC(C)C(=O)Nc2ccccc2[N+](=O)[O-])cc1 (centres undefined) | nt | -17 | -96 | i | -3 | nt | -2 | 1
O=C(CN1CCC(NC(=O)C2CCCCC2)CC1)Nc1ccccc1 | nt | -20 | 7 | nt | nt | nt | 3 | 5
O=C1c2ccccc2C(=O)N1CCSc1nncs1 | -6 | -9 | nt | i | -19 | -3 | -3 | 0
COC(=O)c1oc2ccc(Br)cc2c1NC(=O)CN1CCN(C)CC1 | nt | -9 | nt | i | -4 | nt | 1 | 6
COc1ccc(S(=O)(=O)N2CCCCC2)cc1NC(=O)Cc1sc(C)nc1-c1ccc(F)cc1 | nt | -15 | 80* | i | -4 | nt | 11 | 0
Cc1nc2c(-c3ccccc3)c(C)nn2c(C)c1CC(=O)O | 7 | -3 | nt | i | 4 | -8 | 5 | 1
COc1ccc(CCC(=O)NCCc2cn3c(C)csc3n2)cc1 | 1 | -18 | 6 | i | -3 | 3 | 1 | 2
CC(NC(=O)/C(C#N)=C/c1ccc(N2CCOCC2)cc1)c1ccccc1 (centres undefined) | 3 | 1 | 0 | nt | 32 | 7 | -1 | -8
CCN(CC)c1ccc(N=Nc2ncn[nH]2)cc1 | 7 | nt | -20 | i | 9 | 31 | 28 | 5
COc1ncnc(-c2ccccc2)c1-c1ccccc1 | nt | nt | -1 | i | 0 | nt | -3 | -3
CCOc1cc(C(=S)N2CCOCC2)ccc1OS(=O)(=O)c1ccc(OC)cc1 | 0 | -14 | -3 | i | -12 | -2 | 3 | -16
O=[N+]([O-])c1cc(Cl)c2cccnc2c1O | 7 | nt | -4 | i | 98* | 2 | 14 | 7
CCOC(=O)C1CCC(CN(Cc2ccccc2)S(=O)(=O)c2ccc([N+](=O)[O-])cc2)CC1 (centres undefined) | -5 | nt | 9 | i | -2 | -4 | -8 | -9
CC1CCN(C(=S)NC2CC3CCC2C3)CC1 (centres undefined) | 36 | nt | nt | i | -12 | -2 | 1 | -2
